Screening data deposited in PubChem BioAssay by National Center for Advancing Translational Sciences (NCATS).
hNpr1 antagonist: antagonists of human natriuretic peptide receptor Npr1; P16066; HEK293 hNpr1 GloSensor cGMP, ANP-stimulated luminescence; Potency, µM (highest dose often 46.3 µM), for inactives: at the top dose activity change, negative = inhibition, usual class: inhibitors; 76,000 tested, 1.6% active; active = well fitted inhibition curve with a large enough effect; inconclusive = small, poorly fitted or top-dose-only effect; inactive = no such curve, though single readings can be large or run the other way;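 also: nearly all actives have a fitted effect of over 60% in size; nearly all hits also lower the signal before the agonist is added; a reference antagonist and vehicle were the controls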
Target sequence (P16066 whole entry, looked up): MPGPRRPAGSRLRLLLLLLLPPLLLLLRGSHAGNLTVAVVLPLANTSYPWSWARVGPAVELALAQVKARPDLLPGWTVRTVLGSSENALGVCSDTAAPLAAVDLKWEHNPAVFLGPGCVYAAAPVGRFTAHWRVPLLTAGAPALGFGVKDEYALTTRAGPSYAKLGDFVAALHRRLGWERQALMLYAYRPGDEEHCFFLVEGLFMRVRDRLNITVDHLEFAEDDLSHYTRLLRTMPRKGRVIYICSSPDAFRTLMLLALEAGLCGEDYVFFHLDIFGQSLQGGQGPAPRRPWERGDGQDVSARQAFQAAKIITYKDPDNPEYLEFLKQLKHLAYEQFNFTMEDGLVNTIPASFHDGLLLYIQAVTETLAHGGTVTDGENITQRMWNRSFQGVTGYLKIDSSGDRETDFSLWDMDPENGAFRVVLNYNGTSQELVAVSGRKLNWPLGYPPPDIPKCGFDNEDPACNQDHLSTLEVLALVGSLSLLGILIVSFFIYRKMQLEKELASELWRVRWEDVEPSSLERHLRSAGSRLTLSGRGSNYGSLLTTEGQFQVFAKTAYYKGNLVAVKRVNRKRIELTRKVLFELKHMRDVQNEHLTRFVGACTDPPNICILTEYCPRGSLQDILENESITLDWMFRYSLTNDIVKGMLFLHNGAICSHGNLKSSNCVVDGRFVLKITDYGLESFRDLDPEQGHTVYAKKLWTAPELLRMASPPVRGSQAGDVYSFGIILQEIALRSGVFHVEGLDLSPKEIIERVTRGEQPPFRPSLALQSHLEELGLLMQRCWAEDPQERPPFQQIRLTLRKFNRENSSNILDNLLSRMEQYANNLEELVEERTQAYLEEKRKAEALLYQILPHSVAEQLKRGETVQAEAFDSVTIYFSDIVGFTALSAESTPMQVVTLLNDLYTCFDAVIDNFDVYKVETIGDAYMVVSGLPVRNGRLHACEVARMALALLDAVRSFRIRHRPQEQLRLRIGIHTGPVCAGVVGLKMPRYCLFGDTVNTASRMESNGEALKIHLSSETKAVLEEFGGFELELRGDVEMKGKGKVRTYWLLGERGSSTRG
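Compound pre-incubated 30 min at room temperature on GloSensor-loaded HEK293 cells stably carrying hNpr1 and the pGS-40F cGMP biosensor. Stimulation uses hNppA at 0.1 nM final; luminescence is taken at baseline and 20 min post-agonist.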
Numbers without * were called inactive; ? = inconclusive; [ ] = remark or other dose. % is scaled to controls: 0 for no effect and ±100 for the full control effect; potency is read from the fitted curve at half-maximal effect. An excerpt, so the mix of outcomes need not match the whole.

cpd	SMILES	hNpr1 antagonist
1	Cc1noc(C)c1Cc1ccc(C(=O)NCC23CCCC=C2NC(=O)CC3)o1 (stereo not drawn)	15.5%
2	Cc1cccc(CN2CCC3(CC2)CC2C(=O)NCCN2C3)c1 (stereo not drawn)	1.0%
3	O=C(c1cnccn1)N1CCCC(Cc2nc(C3CCOCC3)no2)C1 (stereo not drawn)	0.0%
4	COc1ccc(C(=O)N2CCCCCCN(C)C(=O)[C@@H]3CCC[C@@H]32)cc1	-8.3%
5	CC(=O)N1CCC(Cc2ccc(C(=O)NCCCn3cccn3)cc2)CC1	-2.7%
6	CC1CCN(C(=O)c2ccccc2OCC2CCCNC2)CC1 (stereo not drawn)	4.6%
7	COc1cncc(N2C[C@@H]3[C@H](C2)N(CCOc2ccccc2)C(=O)C(C)(C)[S+]3(=O)[O-])c1	-10.9%
8	COCC(=O)NC[C@H]1CCN(Cc2cc(C)nn2C)C[C@H]1N(C)C	-0.6%
9	CC1=C[C@@H](CC#N)[C@H](C(C)C)C[C@H]1CC(=O)N(C)CCc1ccccn1	-13.9%[70.6 µM]
10	CCn1nccc1C(=O)N1CCC2(CC1)CC(OCCOC)CCO2 (stereo not drawn)	-3.1%

Look-ups from the results shown:
hNpr1 antagonist, no. 5 → -2.7%
hNpr1 antagonist, no. 10 → -3.1%
hNpr1 antagonist, no. 7 → -10.9%
hNpr1 antagonist, no. 8 → -0.6%
hNpr1 antagonist, no. 9 → -13.9%[70.6 µM]

Additional results:
cpd	SMILES	hNpr1 antagonist
11	O=C(NCc1ccncc1)[C@@H]1C[C@@H](c2ccc(F)cc2)N(CCOc2ccccc2)C1	-15.1%[70.6 µM]
12	CCn1c(-c2ccccc2)nn(CC(=O)NCc2ccsc2)c1=O	1.8%
13	Cc1ccc(CN2C(=O)OC(c3cccc(NC(=O)Cc4ccccc4)c3)C2C(=O)N2CCCC2)cc1 (stereo not drawn)	-0.8%
14	CSCc1noc(CNC(=O)[C@H]2CNC[C@H](C(=O)N3CCCC3)C2)n1	-1.9%
15	Cc1ccc(-c2cc(C(=O)N[C@H]3Cc4ccccc4[C@@H]3N)n[nH]2)s1	1.4%
16	O=C(NCC1(COc2cccnc2)C[C@@H](O)[C@@H](O)C1)Nc1cccnc1 (stereo partly drawn)	-0.9%[70.6 µM]
17	O=C(CCC[C@H]1NC[C@@H]2CC1CN(Cc1ccccc1)C2)N1CCCC1	4.7%
18	CN1CCCN(C(=O)CCC[C@@H]2[C@H]3CCCN4CCC[C@@H](CN2Cc2cccnc2)[C@@H]34)CC1	0.6%
19	COc1ccc(NC(=O)Cn2c(-c3ccccc3)nc(C)cc2=O)cc1OC	-10.1%
20	COc1ccc(CCC(=O)N2CCCCCNC(=O)[C@@H]3CCCC[C@@H]32)cc1	0.9%

An excerpt from above in order of their number in hNpr1 antagonist, high to low:
cpd	SMILES	hNpr1 antagonist
17	O=C(CCC[C@H]1NC[C@@H]2CC1CN(Cc1ccccc1)C2)N1CCCC1	4.7%
12	CCn1c(-c2ccccc2)nn(CC(=O)NCc2ccsc2)c1=O	1.8%
19	COc1ccc(NC(=O)Cn2c(-c3ccccc3)nc(C)cc2=O)cc1OC	-10.1%

Continued:
cpd	SMILES	hNpr1 antagonist
21	COc1cccc(NC(=O)N2CC[C@@H](CC(=O)O)[C@@H](CC3=NCCc4cc(OC)c(OC)cc43)C2)c1	0.0%
22	CCn1c2c(c(=O)n1-c1ccccc1)CCN(C(=O)C1CCC1)C2	-21.7%[70.6 µM]
23	O=C(NCc1ccc(F)cc1)C1CCc2sc(C(=O)N3CCCC3)cc2C1 (stereo not drawn)	-2.0%
24	O=C(NCc1nc2c(s1)CCCC2)C1NCCc2[nH]cnc21 (stereo not drawn)	4.4%
25	Cc1ccsc1C(=O)NC1CCCN(c2cc(-c3ccccc3)[nH]n2)C1 (stereo not drawn)	-22.4%
26	COc1ccc(NC(=O)CN2C(=O)NC3(CCC(C(C)(C)C)CC3)C2=O)c(OC)c1 (stereo not drawn)	0.0%
27	CCN1CCN(CCCNC(=O)C2N(c3ccc(OC)cc3)C(=O)C23CCCCC3)CC1 (stereo not drawn)	2.9%
28	COc1cccc(CCC(=O)N2CCC(C3CCNC3)CC2)c1 (stereo not drawn)	1.2%
29	O=C(C1CCC1)N1CCC2(CC1)NCCc1c2[nH]c2ccccc12	1.1%
30	NC(=O)[C@@H]1CN(C(=O)c2cocn2)C[C@H]1COc1ccccc1	-9.7%

cpd	SMILES	hNpr1 antagonist
31	COc1nccnc1NC1CCN(C(=O)c2cnn3cccnc23)CC1	-2.4%
32	COCCN1CCNc2nc(COc3ccc(CN(C)C)cc3)n(Cc3ccccc3)c2C1=O	-3.4%
33	O=C(NCc1cccc(F)c1)c1cnc2c(c1)N(C(=O)Cc1ccc(O)cc1)CCC2	-1.3%[70.6 µM]
34	CN1CCC(N2CCN(S(=O)(=O)c3cccc(F)c3)CC2)C1=O (stereo not drawn)	3.0%
35	COCCNC(=O)C1COC2(CCN(C(=O)c3ccccc3F)CC2)N1C(=O)c1cccc(C)c1 (stereo not drawn)	0.9%
36	CCN1CC(C(=O)NCc2csc(-c3ncccn3)n2)CCC1=O (stereo not drawn)	-4.3%
37	CC(=O)N1CCC(NC[C@H]2Cn3c(-c4ccc(F)cc4)cnc3CO2)CC1	-0.1%[70.6 µM]
38	Cc1ccc(C(=O)N2C[C@@H](CO)[C@H](c3ccncc3)C2)cc1F	-0.7%
39	CCOc1ccccc1C(=O)N1CCN(c2cc(-c3ccc(Cl)cc3)[nH]n2)CC1	-28.2%
40	NC(=O)c1ccc(NC(=O)C2CC(=O)N(c3n[nH]c4cc(Br)ccc34)C2)cc1 (stereo not drawn)	1.8%

cpd	SMILES	hNpr1 antagonist
41	N#Cc1cccc(-c2ccnc(N[C@H]3CO[C@H]4[C@@H]3OC[C@H]4OC(=O)Nc3ccccc3)n2)c1	-10.1%
42	NC(=O)CN1C(=O)[C@@H]2CN(S(=O)(=O)c3cccs3)CCN2C1=O	-2.6%[70.6 µM]
43	CN(C)C(=O)N1CCn2nc(CNC(=O)c3cc4ccccc4n3C)cc2C1	-1.0%
44	O=C([C@@H]1C[C@H](F)CN1C(=O)Nc1ccc(Cl)cc1)N1CCCCC1	-3.1%
45	O=C(NC[C@H]1O[C@@H](CC(=O)N2CCOCC2)[C@H](O)[C@@H]1O)Nc1cccc(F)c1	-0.2%[70.6 µM]
46	CCOC(=O)c1ccc(NC(=O)N2CCC3(CC2)SCC(=O)N3Cc2ccco2)cc1	-12.1%
47	CCn1cc(CN2CCC(N3CC(OCCOC)C34CCCCC4)CC2)cn1 (stereo not drawn)	-1.3%
48	O=C(Cn1cccc1-c1nc(-c2ccc3c(c2)OCO3)no1)Nc1ccccc1Cl	-10.4%
49	CC1=C[C@@H](CN2CCC[C@H]2CO)[C@H](C(C)C)C[C@H]1Cc1nnc(-c2ccc(N(C)C)cc2)o1	1.1%
50	Cc1nn2c(c1-c1ccccc1OCc1ccccc1)N(C(=O)Cc1ccc3c(c1)OCO3)CCC2	8.91µM*

cpd	SMILES	hNpr1 antagonist
51	O=C(NCc1ccnc2[nH]ccc12)c1ccc(Cl)cc1	-6.4%[70.6 µM]
52	CCn1ncc(NC(=O)Cn2ncc3cc(-c4cccc(OC)c4)ccc32)n1	?
53	CCNC(=O)c1cccnc1OC1CCN(C(=O)c2sccc2C)C1 (stereo not drawn)	-4.2%
54	O=C(c1ccccc1Cl)N1CCn2c(nn(-c3ccc([N+](=O)[O-])cc3)c2=O)C1	-15.9%
55	CC(C)NC(=O)C1COC2(CCN(C(=O)c3ccc(Cl)cc3)CC2)N1C(=O)c1cccc(F)c1 (stereo not drawn)	3.6%
56	O=C1CC2(CCN(C(=O)c3cnc4ccccn4c3=O)C2)C(=O)N1 (stereo not drawn)	?
57	COCCNC(=O)[C@H]1C[C@H](Oc2cccnc2)CN1S(=O)(=O)c1ccc(OC)cc1	6.5%
58	O=C1Nc2ccccc2CN(Cc2ccc(Cl)cc2)C12CCNCC2	-15.7%
59	COCc1ncc(C)n1C1CCCN(C(=O)c2ccc(C)s2)C1 (stereo not drawn)	-0.1%
60	Cc1cc2c(SCC(=O)N3CCOCC(CO)C3)ncnc2s1 (stereo not drawn)	-3.0%

cpd	SMILES	hNpr1 antagonist
61	COCCN1C(=O)CS(=O)(=O)C12CCN(C(=O)Cn1c(=O)oc3ccccc31)CC2	-0.5%
62	OCc1ccc(CN2C[C@H](O)C[C@H]2c2nc(-c3ccc4c(c3)OCO4)no2)o1	-13.0%[70.6 µM]
63	O=C([C@@H]1C[C@H](Oc2cccnc2)CN1C(=O)c1cccnc1)N1CCCC1	5.5%
64	O=C(C1CC1)N1CCCC1c1noc(COc2ccc(F)cc2)n1 (stereo not drawn)	1.2%
65	COc1cccc(CN2CCC3(CC2)COc2ccccc2C(=O)N3)c1	-3.2%[70.6 µM]
66	Cc1cccc(N2Cc3c(ncnc3N3CCC(N4CCOCC4)CC3)CN(C)C2=O)c1	-0.6%
67	CN(CC1CCOCC1)C(=O)c1ccccc1Cl	-9.1%
68	CC(=O)N1CCN(C(=O)c2cc(CC(C)C)[nH]c(=O)n2)CC(O)C1 (stereo not drawn)	3.0%
69	COc1ccc(-c2[nH]nc3ncc(-c4ccccc4O)nc23)c(C)c1	-23.1%[70.6 µM]
70	CCOc1ccccc1C(=O)N1CCCn2ccnc2C1CC (stereo not drawn)	5.2%

cpd	SMILES	hNpr1 antagonist
71	CCCn1cc2c3c(cccc31)CN(C(=O)c1ccccc1F)CC2	-7.8%
72	COc1cccc(N2CC(C(=O)N3CCCC3)NC2=O)c1 (stereo not drawn)	0.0%[70.6 µM]
73	OC[C@@H]1CN(C2CCCCC2)C[C@H]1c1nc(-c2ccncc2)no1	5.4%
74	O=C(Cc1cccc(Cl)c1)N1CCc2c(n(CCOc3ccccc3)n(-c3ccccc3)c2=O)C1	-14.9%
75	CN(CC1(CO)CC1)c1nccc(CCC(F)(F)F)n1	0.2%
76	COCCNC(=O)C1CC(c2ccccc2)CN(C(=O)NCc2ccccc2)C1 (stereo not drawn)	-2.3%
77	COCc1nc(C2CCN(C(=O)CCc3c[nH]c4ccccc34)C2)no1 (stereo not drawn)	-1.2%
78	O=c1n(-c2ccc(C(F)(F)F)cc2)nc2n1CCN(Cc1cccc3ccccc13)C2	-19.3%
79	COc1ncccc1-c1cc2c(nc1OC)nc(CCc1ccccc1)n2C	-9.3%[70.6 µM]
80	O=C(Nc1ccc(Cl)nc1)c1ccn2nccc2c1	-20.2%[70.6 µM]

cpd	SMILES	hNpr1 antagonist
81	O=C1N2CCCC2CN1C1CCN(Cc2ccc(OC(F)(F)F)cc2)CC1 (stereo not drawn)	?
82	Cc1csc(NC(=O)c2nc3c(o2)CCN(CCCc2ccccc2)CC3)n1	-7.1%[70.6 µM]
83	CC1(C(=O)NC2COC2)CN(Cc2ccccc2)Cc2ccc(Nc3ccccc3)nc21 (stereo not drawn)	-1.8%[70.6 µM]
84	COc1ccc(C(=O)N2C[C@@H]3C[C@H](C2)c2c(NC(=O)Nc4ccccc4)ccc(=O)n2C3)cc1	-1.7%
85	COc1ccc(-c2nnc(C[C@@H]3C[C@@H](C(C)C)[C@H](CNCc4cccnc4)C=C3C)o2)cc1	-29.8%
86	O=C(Nc1ccc(Cl)cc1)N1CCCN(c2nc3ncccc3o2)CC1	-5.7%
87	Oc1ccccc1CN1CCOC[C@H]1c1ncc(-c2ccccc2)[nH]1	-16.3%[70.6 µM]
88	O=C1CCN(C(=O)C2CCN(C(=O)COc3ccccc3)CC2)CCCCCCN1	-2.1%
89	COc1cccc(NC(=O)O[C@@H]2CC[C@]3(C)[C@H](CC[C@H]4OC(=O)C[C@H]43)[C@]2(C)CO)c1	-2.1%[70.6 µM]
90	C=CCN1CCC2(CCC1=O)CN(Cc1ncc[nH]1)CCN2C (stereo not drawn)	5.3%

cpd	SMILES	hNpr1 antagonist
91	O=C(Nc1cccc(-c2nnc3n2CCCC3)c1)c1ccc(F)cc1	4.1%
92	CC(C)CCNC(=O)c1cnc2c(c1)N(C(=O)Cc1ccc(C(C)C)cc1)CCC2	-22.8%[70.6 µM]
93	CSc1cccc(NC(=O)Cn2c(-c3cccc(Cl)c3)nc(C)c(CCO)c2=O)c1	-15.2%
94	NC(=O)CNC(=O)[C@@]1(O)C[C@@H](O)[C@H](O)[C@@H](NC(=O)Nc2ccc(OC(F)(F)F)cc2)C1	-1.4%
95	COc1cc(OC)c(C(=O)N2CCCC[C@H](N(C)C)C2)cc1OC	4.3%
96	COc1ccnc(N2CCN(CC3(O)CCCNC3)CC2)n1 (stereo not drawn)	0.9%
97	Cc1cccc(C)c1OCc1cc(C(=O)N2CCCC(C(=O)c3nccn3C)C2)no1 (stereo not drawn)	6.0%
98	COc1cccc(C(=O)NC2CCN(c3cc(-c4ccc(Cl)cc4)[nH]n3)CC2)c1	-23.1%
99	Cc1ccc(CNC(=O)N2CCCCCCN(C)C(=O)[C@@H]3CCC[C@@H]32)cc1	1.9%
100	CN(CCc1noc(C2CN(C(=O)c3ccncn3)C2)n1)C(=O)C1CC1	8.3%

cpd	SMILES	hNpr1 antagonist
101	O=C(Cc1cccc(F)c1)NC1CCN(C(=O)N2CC3CC(C2)[C@H]2CCCC(=O)N2C3)CC1 (stereo partly drawn)	3.1%
102	COCCOCC(=O)N1CCCC(c2nc(-c3ccccc3)no2)CCNC(=O)CC1 (stereo not drawn)	1.0%
103	O=C1NCC2(CCCN(C(=O)c3cnc4c(O)cccn4c3=O)C2)O1 (stereo not drawn)	0.6%
104	COCc1nc(C2CC(NC(=O)c3cc(Cl)cn3C)C2)cc(=O)[nH]1 (stereo not drawn)	7.0%
105	Cc1ccc(C)c(NC(=O)Cn2c(C)cc3nc4n(c(=O)c32)CCCC4)c1	3.6%
106	COc1ccc(NC(=O)N2CCC(OCCOc3cccnc3)CC2)cc1	5.2%
107	COCCCNc1nccc(C2(c3ccccc3Cl)CCNCC2)n1	1.4%
108	CCCNC(=O)C(NC(=O)c1ccccc1C)C1CCN(C(=O)C2CCCC2)CC1 (stereo not drawn)	0.5%
